Source: PubChem BioAssay
Cruzain inh Det = qHTS Assay for Promiscuous and Specific Inhibitors of Cruzain (with detergent); Cruzipain (Trypanosoma cruzi), P25779; purified cruzain, Z-FR-AMC fluorescence, 0.01% Triton; Potency, µM, for the others: max response, negative = inhibition, most hits filed as inhibitors; 200,000 tested, 0.43% active; AID 1478, 2009; active = well fitted curve in the direction sought with a large enough effect; inconclusive = small, poorly fitted or top-dose-only effect, or another doubt; inactive = no such curve, though single readings can be large; an effect the other way counts as inactive or inconclusive;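 note: plate controls were neutral wells for no effect and buffer without enzyme for full effect; nearly all actives have a fitted effect of over 40% in size; top concentration of the series not given in the record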
Target sequence (P25779 123-467 limits assumed): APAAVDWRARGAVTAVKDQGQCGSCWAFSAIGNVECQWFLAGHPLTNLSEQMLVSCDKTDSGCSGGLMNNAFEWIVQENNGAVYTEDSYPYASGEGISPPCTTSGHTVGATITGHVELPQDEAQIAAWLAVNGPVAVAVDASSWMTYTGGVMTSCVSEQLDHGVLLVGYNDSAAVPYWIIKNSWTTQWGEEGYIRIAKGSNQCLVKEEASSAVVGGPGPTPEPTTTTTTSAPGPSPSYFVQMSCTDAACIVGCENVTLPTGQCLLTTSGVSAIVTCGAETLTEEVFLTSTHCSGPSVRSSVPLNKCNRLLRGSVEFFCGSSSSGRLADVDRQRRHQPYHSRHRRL
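Cysteine protease activity tested under reducing, mildly acidic conditions (100 mM sodium acetate pH 5.5, 5 mM DTT) plus 0.01% Triton X-100. Cruzain 1.5 nM; substrate Z-FR-AMC 2 uM; 15 min compound preincubation at room temperature.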
SARS PLP yeast = qHTS of Yeast-based Assay for SARS-CoV PLP; 330,000 tested, 0.19% active; S. cerevisiae expressing SARS-CoV PLpro, growth rescue; control for the full effect not named in the record; Potency, µM (titrated, usually from 32.9 µM), for the others: at the highest dose activity, positive = growth rescue; note: 0% is about no effect; nearly all actives have a fitted effect of over 55% in size; growth read by luminescence after 48 h
LASV entry inh = qHTS for Inhibitors of binding or entry into cells for Lassa Virus | 300,000 tested, 1.2% active | Potency, µM (top dose mostly 37.9 µM), without a hit: at the highest dose activity change, negative = inhibition, hits mostly inhibitors | Lassa virus pseudotype entry inhibition, cell reporter; control for the full effect not named in the record; active means well fitted inhibition curve with a large enough effect; inconclusive means small, poorly fitted or top-dose-only effect, or effect the other way; inactive means flat fitted curve, though single readings scatter; tested in HEK293 cells; note: % is set by controls: 0 for no effect and ±100 for the full control effect; nearly all actives have a fitted effect of over 50% in size; luciferase read-out
NS1 function inh = qHTS Assay for Inhibitors of Influenza NS1 Protein Function | S. cerevisiae slowed by influenza A NS1, growth recovery by OD600 | Potency, µM (highest dose often 46.1 µM), without a hit: at the highest dose activity, positive = more growth | 270,000 tested, 0.4% active | AID 2326, 2010; note: actives are rising curves; nearly all actives have a fitted effect of over 50% in size
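S. cerevisiae expressing influenza A NS1, grown in glucose, washed, then diluted 1:100 into pH 6.0 -URA galactose medium with 23 nl compound. Growth recovery read as OD600; NS1-free strain serves as control.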
Cruzain inh noDet = qHTS Assay for Promiscuous and Specific Inhibitors of Cruzain (without detergent) | purified cruzain, Z-FR-AMC fluorescence, no detergent | Cruzipain (Trypanosoma cruzi), P25779 | 200,000 tested, 2.3% active | AID 1476, 2009 | Potency, µM, for the others: max response, negative = inhibition, usual class: inhibitors; active = well fitted curve in the direction sought with a large enough effect; inconclusive = small, poorly fitted or top-dose-only effect, or another doubt; inactive = no such curve, though single readings can be large; an effect the other way counts as inactive or inconclusive;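 note: plate controls were enzyme without inhibitor for no effect and buffer without enzyme for full effect; nearly all actives have a fitted effect of over 40% in size; top concentration of the series not given in the record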
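Purified cruzain at 1.5 nM, pre-incubated 15 min with compound at room temperature in 100 mM sodium acetate pH 5.5, 5 mM DTT, 0.00005% Triton X-100. Reaction started with 2 uM Z-FR-AMC; AMC fluorescence increase over 60 s gives rate.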
Marburg entry inh = qHTS for inhibitors of binding or entry into cells for Marburg Virus; Marburg virus pseudotyped entry inhibition, cell reporter; control for the full effect not named in the record; about a third of the inactives were read at about 46 µM; Potency, µM (titrated, usually from 37.8 µM), without a hit: at the top dose activity change, negative = inhibition, usual class: inhibitors; 300,000 tested, 1.8% active; active = well fitted inhibition curve with a large enough effect; inconclusive = small, poorly fitted or top-dose-only effect, or effect the other way; inactive = flat fitted curve, though single readings scatter; tested in HEK293 cells; about a fifth of its hits are not listed in these tables; note: % is set by controls: 0 for no effect and ±100 for the full control effect; luciferase read-out
RE007 growth inh = qHTS Assay for Inhibitors of the HIV-1 protein Vpr. S. pombe RE007 Vpr strain, BacTiter-Glo ATP luminescence, 24 h; control for the full effect not named in the record. 360,000 tested, 0.21% active. Potency, µM (doses to about 92.2 µM), without a hit: at the highest dose activity change, negative = less growth; active = well fitted falling curve with a large enough effect; inconclusive = small, poorly fitted or top-dose-only effect; inactive = no such curve, though single readings can be large or run the other way;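 note: % is set by controls: 0 for no effect and ±100 for the full control effect; nearly all actives have a fitted effect of over 50% in size; the assay follows cell death caused by Vpr and the record does not say whether a fall means rescue or toxicity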
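Fission yeast RE007 carrying one integrated HIV-1 vpr copy, seeded at OD 0.01 in PMG+AL medium with 23 nL pinned compound. Grown 24 h at 30 degrees; viability read by BacTiter-Glo luminescence after 5 min.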
2A StopGo = High Throughput Screening for Foot and Mouth Disease Virus Antivirals; 410,000 tested, 1.2% active; human cells with a luciferase reporter of 2A StopGo recoding; control for the full effect not named in the record; AID 1159524, 2015; Potency, µM (top dose mostly 57.9 µM), without a hit: at the top dose signal change, negative = less light; active = well fitted falling curve with a large enough effect; inconclusive = small, poorly fitted or top-dose-only effect; inactive = no such curve, though single readings can be large or run the other way; tested in HEK293T cells; note: % is set by controls: 0 for no effect and ±100 for the full control effect; nearly all actives have a fitted effect of over 45% in size; luciferase light after 4 h
The depositor's hits bear a star; & = joins results of further samples; [ ] = another dose, or the depositor's remark. Unless noted, calls come from the whole dose curve; as a rule, active means well fitted rising curve with a large enough effect; inconclusive means small, poorly fitted or top-dose-only effect; inactive means no such curve, though single readings can be large or run the other way. Potency is the fitted concentration of half-maximal effect.

Results for COCCNC(=S)N1CCc2cc(OC)c(OC)cc2C1c1cccs1 (centres undefined) ?
SARS PLP yeast: 1%; LASV entry inh: 3%[46.1 µM]; Marburg entry inh: 8%[46.1 µM]; RE007 growth inh: 5%; 2A StopGo: 20%

What do the screens show for `Cc1cccc2cc(C(c3nnnn3Cc3ccccc3)N3CCN(c4ccccc4)CC3)c(=O)[nH]c12` (centres undefined)?
Cruzain inh Det: -3.1%; SARS PLP yeast: 0%; LASV entry inh: inconclusive; NS1 function inh: 6%; Cruzain inh noDet: -16%; Marburg entry inh: inconclusive; RE007 growth inh: 6%; 2A StopGo: -8%

Results for COc1ccc(N2CCN(C(=O)c3ccc(CNS(=O)(=O)c4cc(C)ccc4C)cc3)CC2)cc1 ?
SARS PLP yeast: 0%; LASV entry inh: -26%; NS1 function inh: 15%; Marburg entry inh: inconclusive; RE007 growth inh: -7%; 2A StopGo: inconclusive

Results for Cc1nn(C)cc1NC(=O)c1nn(C)cc1[N+](=O)[O-] ?
Cruzain inh Det: 0.7%; SARS PLP yeast: 10%; LASV entry inh: 21%; NS1 function inh: -11%; Cruzain inh noDet: -4%; Marburg entry inh: 3%; RE007 growth inh: 10%; 2A StopGo: -16%

What do the screens show for `CCn1c(=O)c(CCC(=O)N2CCN(c3ccccn3)CC2)c(C)c2c(C)nn(-c3cccc(C)c3)c21`?
SARS PLP yeast: 3%; NS1 function inh: -2%; RE007 growth inh: 11%; 2A StopGo: inconclusive

Results for COc1ccc(-c2csc3nc[nH]c(=O)c23)cc1OC ?
SARS PLP yeast: -3%; LASV entry inh: -8%[46.1 µM]; NS1 function inh: 0%; Marburg entry inh: -22%[46.1 µM]; RE007 growth inh: 3%; 2A StopGo: -14%

Results for CCOC(=O)c1cc(CC)sc1/N=C/C1C(=O)NC(=S)NC1=O ?
SARS PLP yeast: 0%; LASV entry inh: 1%[46.1 µM]; Marburg entry inh: 7%[46.1 µM]; RE007 growth inh: -2%; 2A StopGo: -3%

How did CCc1ccc(NC(=O)CS(=O)CC(=O)NCC2OCCc3ccccc32)cc1 (centres undefined) do in these assays?
Cruzain inh Det: -0.3%; SARS PLP yeast: -5%; LASV entry inh: -18%; NS1 function inh: -4%; Cruzain inh noDet: 10%; Marburg entry inh: 10%&10%[46.1 µM]; RE007 growth inh: 20%; 2A StopGo: -12%

What do the screens show for `O=[N+]([O-])c1ccc(SCc2ccncc2)nc1`?
SARS PLP yeast: 1%; NS1 function inh: -2%; RE007 growth inh: 12%; 2A StopGo: 8%

Results for O=C(COc1ccc(-n2ccnc2)cc1)Nc1cccc(F)c1 ?
SARS PLP yeast: -1%; NS1 function inh: -7%; RE007 growth inh: -1%; 2A StopGo: -22%

What do the screens show for `COCC(=O)Nc1nc2n(n1)C(c1ccccc1)CC(c1ccc(OC)cc1)N2` (centres undefined)?
Cruzain inh Det: -2.7%; SARS PLP yeast: 1%; LASV entry inh: 3%; NS1 function inh: -1%; Cruzain inh noDet: 10%; Marburg entry inh: inconclusive; RE007 growth inh: -7%; 2A StopGo: 13%

Results for Cc1ccc(C(=O)N/N=c2\oc3ccccc3cc2C(N)=O)cc1 ?
SARS PLP yeast: -2%; NS1 function inh: -1%; RE007 growth inh: 7%; 2A StopGo: -3%

What do the screens show for `Cc1ccc(C(=O)NNC(=O)c2cccs2)cc1`?
SARS PLP yeast: -4%; LASV entry inh: 9%[46.1 µM]; Marburg entry inh: inconclusive; RE007 growth inh: -1%; 2A StopGo: 0%

Results for COc1ccccc1-n1c(C)cc(/C=C2\C(=N)N3N=C(CC(=O)N4CCOCC4)SC3=NC2=O)c1C ?
SARS PLP yeast: 5%; NS1 function inh: 18%; RE007 growth inh: -10%; 2A StopGo: -13%

What do the screens show for `CC(C)NC(=O)NC(=O)CN1C(=O)NC2(CCc3ccccc3C2)C1=O` (centres undefined)?
SARS PLP yeast: 0%; LASV entry inh: inconclusive; NS1 function inh: -1%; Marburg entry inh: 4%[46.1 µM]; RE007 growth inh: -18%; 2A StopGo: -9%

Results for COC(=O)c1ccc(Cn2cnc3c(sc4nc(N5CCOCC5)c5c(c43)CCCC5)c2=O)o1 ?
Cruzain inh Det: -4.4%; SARS PLP yeast: -6%; LASV entry inh: inconclusive; NS1 function inh: inconclusive; Cruzain inh noDet: inconclusive; Marburg entry inh: inconclusive; RE007 growth inh: 2%; 2A StopGo: -1%

How did CC(C)CNC(=O)COC(=O)C1c2ccccc2Oc2ccccc21 do in these assays?
SARS PLP yeast: -3%; LASV entry inh: 11%; NS1 function inh: -31%; Marburg entry inh: inconclusive; RE007 growth inh: 4%; 2A StopGo: 10%

What do the screens show for `COc1ccc(C)cc1NC(c1nnc(-c2ccccc2)o1)c1ccc(F)cc1Cl` (centres undefined)?
Cruzain inh Det: -5.8%; LASV entry inh: -6%[46.1 µM]; Cruzain inh noDet: inconclusive; Marburg entry inh: inconclusive; 2A StopGo: -18%

How did O=C(COC(=O)c1c2ccccc2cc2ccccc12)NCC(F)(F)F do in these assays?
Cruzain inh Det: -8.7%; SARS PLP yeast: -19%; LASV entry inh: -14%; NS1 function inh: -22%; Cruzain inh noDet: -3%; Marburg entry inh: -3%; RE007 growth inh: -6%; 2A StopGo: -9%

How did CN(Cc1nc(-c2ccc3c(c2)OCO3)no1)CC1(N2CCOCC2)CCCCC1 do in these assays?
SARS PLP yeast: 0%; NS1 function inh: -1%; Marburg entry inh: -22%[46.1 µM]; RE007 growth inh: -17%; 2A StopGo: 0%

What do the screens show for `COc1cccc(C2=NO[C@@H]3C(=O)N(Cc4ccccc4)C(=O)[C@H]23)c1OC`?
Cruzain inh Det: 6.5%; SARS PLP yeast: 5%; LASV entry inh: 5%; NS1 function inh: -59%; Cruzain inh noDet: -12%; Marburg entry inh: inconclusive; RE007 growth inh: -9%; 2A StopGo: 3%

What do the screens show for `CCOC(=O)c1sc2ncn(/N=C/c3cccnc3)c(=O)c2c1C`?
Cruzain inh Det: 4.2%; SARS PLP yeast: -3%; LASV entry inh: 9%; NS1 function inh: 7%; Cruzain inh noDet: 16%; Marburg entry inh: 7%; RE007 growth inh: -15%; 2A StopGo: -16%

What do the screens show for `CC(=O)c1ccc(-c2nnc(CCC(=O)N3CCCC(C(=O)CC(C)C)C3)o2)s1` (centres undefined)?
SARS PLP yeast: -7%; NS1 function inh: 5%; RE007 growth inh: 6%; 2A StopGo: 31%[activator]

Results for Cc1cc(N2CCN(c3ccccc3)CC2)nc(NCc2ccccc2)n1 ?
Cruzain inh Det: 0.5%; SARS PLP yeast: -9%; LASV entry inh: -10%; NS1 function inh: -62%; Cruzain inh noDet: -5%; Marburg entry inh: inconclusive; RE007 growth inh: -15%; 2A StopGo: inconclusive

Results for c1ccc(-c2ccc(OCCCn3cncn3)cc2)cc1 ?
Cruzain inh Det: 5.2%; SARS PLP yeast: -10%; LASV entry inh: 0%; NS1 function inh: -102%; Cruzain inh noDet: 14%; Marburg entry inh: inconclusive; RE007 growth inh: 2%; 2A StopGo: 9%

What do the screens show for `Cc1ccc(S(=O)(=O)NCc2ccccc2)cc1C(=O)NC(C)c1ccc(S(N)(=O)=O)cc1` (centres undefined)?
SARS PLP yeast: -6%; LASV entry inh: -7%; Marburg entry inh: 17%[46.1 µM]; RE007 growth inh: 5%; 2A StopGo: -21%

Results for CCc1ccccc1NC(=O)Cn1c(=O)n(-c2ccccc2)c(=O)c2oc3ccccc3c21 ?
Cruzain inh Det: 0.5%; LASV entry inh: -15%[46.1 µM]; Cruzain inh noDet: 16%; 2A StopGo: 3%

Results for COc1ccc(NC(=O)CN(C)C(=O)CSCc2ccc(C)cc2)cc1 ?
SARS PLP yeast: 3%; LASV entry inh: -17%; Marburg entry inh: 3%; RE007 growth inh: 1%; 2A StopGo: -13%

Results for Cc1ccc(CN2CCN(CC(=O)N3CCC4(CC3)OCCO4)C2=O)cc1 ?
Cruzain inh Det: 2.1%; SARS PLP yeast: 1%; LASV entry inh: 12%; NS1 function inh: -6%; Cruzain inh noDet: -12%; Marburg entry inh: 18%; RE007 growth inh: 3%; 2A StopGo: -10%

What do the screens show for `COCCCN1C(=O)C(=O)/C(=C(/O)c2ccc(C)cc2)C1/C=C/c1ccccc1` (centres undefined)?
SARS PLP yeast: 4%; LASV entry inh: 8%; NS1 function inh: 6%; Marburg entry inh: -3%[46.1 µM]; RE007 growth inh: -2%; 2A StopGo: 5%

Results for C=CCn1c(SCC(=O)NCCCO)nc2sc3c(c2c1=O)CCC3 ?
SARS PLP yeast: 4%; NS1 function inh: 15%; RE007 growth inh: 6%; 2A StopGo: 0%

Results for Cc1cccc(C)c1OCC(=O)Nc1cccc(-c2nnc(-c3ccccc3)o2)c1 ?
Cruzain inh Det: 4.1%; SARS PLP yeast: -6%; LASV entry inh: inconclusive; NS1 function inh: 9%; Cruzain inh noDet: inconclusive; Marburg entry inh: inconclusive; RE007 growth inh: -2%; 2A StopGo: 0%

How did OCCC1CCCCN1CC(O)COCc1ccc(Cl)cc1 (centres undefined) do in these assays?
SARS PLP yeast: 3%; LASV entry inh: 1%[46.1 µM]; NS1 function inh: -9%; Marburg entry inh: -2%[46.1 µM]; RE007 growth inh: -8%; 2A StopGo: 7%

What do the screens show for `CCn1c2c(c3cc(Cl)ccc31)CCCC2=O`?
Cruzain inh Det: -4.0%; SARS PLP yeast: -11%; NS1 function inh: -101%; Cruzain inh noDet: 2%; RE007 growth inh: -4%; 2A StopGo: 0%

How did O=C(C1CCCN(S(=O)(=O)c2cccc3nsnc23)C1)N1CCN(c2ccccc2)CC1 (centres undefined) do in these assays?
Cruzain inh Det: -6.5%; LASV entry inh: inconclusive; Cruzain inh noDet: 10%; Marburg entry inh: inconclusive; 2A StopGo: inconclusive

How did CC1C(=O)C(C)(C)C(=O)OC1c1ccc([N+](=O)[O-])cc1 (centres undefined) do in these assays?
SARS PLP yeast: -3%; NS1 function inh: -4%; RE007 growth inh: -13%; 2A StopGo: 7%
